# Compound activity: PubChem, several laboratories
# Mtb bLac sens – beta-lactam sensitization of Mtb H37Rv. inhibition, % at 25 µM. M. tuberculosis H37Rv growth with meropenem, percent inhibition; hits of this screen are not shown here. hit rate 0.27% among 330,000. AID 434955;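 active = about 74% or more and at least 40 points above the plate without the antibiotic, then above 30% in a dose series; inconclusive = first-round hits that could not be retested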;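 note: growth measured after seven days incubation then overnight dye step; 0% = bacteria only wells and 100% = bacteria with antibiotic; twin plates without the antibiotic show which effects depend on it; some results filed as inactive read as strong as hits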
# RecA intein inh – Mtb RecA intein splicing inhibition; P9WHJ3; cell-free RecA intein splicing, fluorescence; inhibition, %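 (about 9 µM by stock and volumes)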; hit rate 0.75% among 290,000; AID 2221; in the data active = inhibition above about 30%; inconclusive = no clear call, values can overlap the other calls;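 note: 0% = vehicle wells and 100% = reference inhibitor control wells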
# Target sequence (P9WHJ3 whole entry, looked up): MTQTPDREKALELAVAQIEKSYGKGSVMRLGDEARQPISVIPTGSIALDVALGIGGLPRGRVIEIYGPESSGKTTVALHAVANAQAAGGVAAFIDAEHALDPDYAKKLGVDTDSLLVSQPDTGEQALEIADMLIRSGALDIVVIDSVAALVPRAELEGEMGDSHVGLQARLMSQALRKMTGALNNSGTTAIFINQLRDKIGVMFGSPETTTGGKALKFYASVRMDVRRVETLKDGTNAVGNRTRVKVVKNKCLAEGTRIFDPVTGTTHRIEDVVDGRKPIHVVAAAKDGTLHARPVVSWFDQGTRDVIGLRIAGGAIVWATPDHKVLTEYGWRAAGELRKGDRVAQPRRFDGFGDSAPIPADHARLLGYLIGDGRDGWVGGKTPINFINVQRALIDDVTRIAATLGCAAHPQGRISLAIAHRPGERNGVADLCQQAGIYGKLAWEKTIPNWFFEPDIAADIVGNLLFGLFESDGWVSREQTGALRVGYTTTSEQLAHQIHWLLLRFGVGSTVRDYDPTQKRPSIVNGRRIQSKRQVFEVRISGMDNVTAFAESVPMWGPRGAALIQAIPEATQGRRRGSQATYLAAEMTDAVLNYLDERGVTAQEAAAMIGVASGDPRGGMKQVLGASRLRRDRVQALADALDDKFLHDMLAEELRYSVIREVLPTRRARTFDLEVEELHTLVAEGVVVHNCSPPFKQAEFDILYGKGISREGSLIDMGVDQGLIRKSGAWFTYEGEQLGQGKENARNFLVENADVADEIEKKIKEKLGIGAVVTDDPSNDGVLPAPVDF
# YopH PTP inh – YopH (Yersinia) phosphatase inhibition. fluorescence Ex485/Em525. inhibition, %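 (about 10 µM by stock and volumes)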. hit rate 0.16% among 140,000. AID 898;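 active = inhibition of 50% or more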;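 note: controls were vehicle for no effect and minimum signal wells for full effect; inactives centre near -20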
# Arbovirus anti – antivirals against arbovirus infection; AID 1251; inhibition, % at 10 µM; arbovirus infection cell-based antiviral screen; hit rate 0.37% among 200,000;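 active = inhibition from about 30%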;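 note: bluetongue infection of BSR cells; cell survival read as ATP light after 72 h; 0% = infected wells without compound and 100% = uninfected wells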
# Mtb growth – M. tuberculosis H37Rv growth inhibitors, H37Rv strain (AID 1626) | M. tuberculosis H37Rv growth inhibition; higher % means a stronger effect | inhibition, % at 10 µM, or IC50 in µM where a hit was titrated | hit rate 0.95% among 220,000;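 active = confirmed in a dose series; inconclusive = inhibition above 80% but not taken into the dose series; inactive = below 80% or under 30% at every dose of the series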;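 note: bacteria incubated seven days before Alamar blue readout; 0% = bacteria only wells and 100% = bacteria with antibiotic wells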
# Arbovirus anti repeat – further read-out of Arbovirus anti, marked with its call; inhibition, %; measured here: 10K subset replicate screen; many hits read low in the repeat;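 first of two repeat runs on a subset; 0% = infected and 100% = uninfected wells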
# * = called active by the depositor; u = inconclusive; x = no result given; & = joins results of further samples.
SMILES,Mtb bLac sens,RecA intein inh,YopH PTP inh,Arbovirus anti,Mtb growth,others
O=C(NCc1nc2ccccc2[nH]1)c1ccc(S(=O)(=O)N2CCCC2)cc1,-1.6,-1.5,x,4.5,-0.4%,
CCC1CCCCN1C/C=C/c1ccccc1[N+](=O)[O-] (centres undefined),-10.0,-0.2,-29.3,-1.7,-1.2%,
COc1ccc(CNC(=O)CCSCc2cccc(Cl)c2)cc1,-0.6,3.8,-28.3,-6.9,1.0%,
COc1cccc(N(C(=O)c2ccn[nH]2)C2(C(=O)Nc3c(C)cccc3C)CCCCC2)c1,-4.5,x,-13.0,-0.7,4.9%,
Cn1cc(S(=O)(=O)NCC2CCCO2)c(=O)n(C)c1=O (centres undefined),13.8,-0.1,x,x,1.4%,
Cc1cc2ncn(/N=C/c3cc(Br)ccc3O)c2cc1C,x,-0.6,-26.5,26.1,-5.0%,
COc1ccc(-c2nnc(SCC(=O)NC3CCCc4ccccc43)n2N)cc1 (centres undefined),-1.5,0.1,-24.7,0.0,-1.9%,
COc1ccc(CNc2nc3ccccc3n2C(C)C)cc1,-2.9,1.2,x,x,x,
COc1cc(NC(=O)CSc2ccc(-c3ccccn3)nn2)cc(OC)c1,99.8,2.0,x,x,x,
CC(NC(=O)Cc1ccc(F)cc1)c1ccccc1 (centres undefined),-10.1,0.5,-37.2,-0.9,7.5%,
Nc1sc2c(c1C(=O)NCCc1ccccc1)CCC2,-8.4,6.9,x,-3.5,-7.1%,
O=C(CCN1Cc2ccccc2C1)c1ccc2c(c1)OCCO2,32.0,-0.5,-26.7,-7.0,-7.1%,
Cc1ccc(C)c(N2CCN(C(=O)c3cn(C)c4ccc(S(=O)(=O)N(C)C)cc4c3=O)CC2)c1,0.9,1.4,-37.0,-3.2,3.6%,
Cc1cc(C)nc(/N=C2\NC(=O)CC(C(=O)O)N2c2ccc(C)c(C)c2)n1 (centres undefined),-0.4,0.5,x,-4.6,-2.2%,
CCN1CC(=O)Nc2cc(S(=O)(=O)N3CCOCC3)ccc21,27.9,21.9,x,-2.2,0.8%,
N#Cc1c(N)nc(SCC(=O)NCc2ccc3c(c2)OCO3)c(C#N)c1-c1cccs1,-6.8,3.6,-42.8,0.7,5.3%,
O=C(Nc1ccccc1N1CCN(c2ccccc2)CC1)c1ccccc1,4.2,8.0,x,5.4,3.3%,
CCCCNCc1ccc(OCc2ccc(Cl)nc2)c(OC)c1,-3.7,-0.1,x,x,-7.5%,
CCOC(=O)CCCn1ncn2c(cc3occc32)c1=O,-4.0,-0.2,-1.8,-0.9,-3.5%,
COCCNC(=S)Nc1ccc2nc(N3CCCC3)cc(C)c2c1,-3.1,-11.6,-22.3,4.7,-7.3%,
COc1ccccc1N1CCN(/N=C/C=C\c2ccccc2[N+](=O)[O-])CC1,7.0,x,x,-6.6,5.5%,
COc1ccc(-c2cc(C(F)(F)F)nc(NCc3cccnc3)n2)cc1,44.5,-1.1,3.6,-7.8,5.6%,
CC(N=C1NC(C)(C)Cc2ccccc21)C(=O)O (centres undefined),-7.5,0.8,x,-0.3,-3.9%,
Cc1nc(Nc2ccc(Br)cc2Br)c([N+](=O)[O-])c(=O)[nH]1,-1.7,2.0,x,x,-5.3%,
COc1ccc2c(C(=O)CCl)c[nH]c2c1,99.9,15.2,x,x,79.2%,
Cc1[nH]nc2c1C(C(C)C)C(C#N)=C(N)O2 (centres undefined),-18.2,x,-27.1,-6.0,-4.6%,
Oc1c(Cl)cc(Cl)cc1C1=NNC(c2ccc(Cl)cc2)C1 (centres undefined),x,x,x,-9.9,67.3%,
COc1ccc(-c2[nH]ncc2CN2CCN(Cc3cccs3)CC2)c(F)c1,3.6,0.0,x,3.6,-0.7%,
CC(C)(C)NC(=O)c1cccnc1Sc1ccccc1,-6.7,-1.9,x,4.0,3.7%,
COc1cc2ccccc2cc1C(=O)Nc1ccccc1N1CCCC1,88.6,11.6,x,x,x,
CC1=C(C(=O)N(C)C)C(c2cccs2)NC(=O)N1 (centres undefined),-9.1,x,7.2,0.3,-1.1%,
CCNS(=O)(=O)c1ccc(C)c(-n2cnnn2)c1C,-7.3,-4.5,33.2,5.3,-4.5%,
COc1ccc(C2(O)CC3CCC(C2)N3c2nc(C)cc(C)c2C#N)cc1 (centres undefined),3.8,-6.8,-50.7,-29.3,-5.8%,
CC(=O)Nc1ccc(/C=C2/Sc3ccccc3C2=O)cc1,8.7,13.8,x,0.5,-3.2%,
Cc1ccc(NC(=O)c2cc(S(=O)(=O)N3CCOCC3)cs2)cc1,-9.5,-1.2,x,x,x,
CS(=O)(=O)c1ccc(Cl)c(C(=O)NC2CCSc3ccccc32)c1 (centres undefined),4.5,1.4,x,x,x,

# Next part; the last 3 above are carried over.
SMILES,Mtb bLac sens,RecA intein inh,YopH PTP inh,Arbovirus anti,Mtb growth,others
CC(=O)Nc1ccc(/C=C2/Sc3ccccc3C2=O)cc1,8.7,13.8,x,0.5,-3.2%,
Cc1ccc(NC(=O)c2cc(S(=O)(=O)N3CCOCC3)cs2)cc1,-9.5,-1.2,x,x,x,
CS(=O)(=O)c1ccc(Cl)c(C(=O)NC2CCSc3ccccc32)c1 (centres undefined),4.5,1.4,x,x,x,
CCCn1c(SCC(=O)c2ccc3c(c2)NC(=O)CO3)nc2ccccc21,-0.8,7.1,-8.1,-10.8,-0.8%,
O=C(Nc1ccccc1)N1N=C(c2ccc(F)cc2)CC1c1ccc(F)cc1 (centres undefined),1.5,-0.8,-35.2,13.8,9.8%,
O=C(COc1ccccc1Cl)NNC(=O)c1ccc2nc[nH]c2c1,2.6,1.2,x,x,x,
CN1CCN(c2ccc(NC(=O)C(C)(C)C)cc2)CC1,-11.0,-0.5,-44.2,-0.1,2.4%,Arbovirus anti repeat=3.2
CC(=O)c1ccc(S(=O)(=O)NC2CC2)cc1,1.3,1.5,x,x,x,
CCN(CC)S(=O)(=O)c1ccc2c(c1)nc(CCC(=O)O)n2CC,-9.6,x,x,17.1,-7.8%,
Cc1ccc(C)c(NC(=O)c2cc(-c3cccnc3)nc3ccccc23)c1,79.9,0.2,x,-7.8,47.0%,
Cc1ccc(CNC(=O)C(=O)NCC2OCCCN2S(=O)(=O)c2cccs2)cc1 (centres undefined),-7.5,-1.4,x,x,x,
C[C@]12CCC(=O)C=C1CC[C@@H]1[C@@H]2CC[C@@]2(C)[C@H]1CC[C@@]21CCC(=O)O1,-8.5,-2.4,x,x,x,
Cc1ccc(CN2CCSc3ccc(C(=O)NCc4ccccn4)cc32)cc1,-4.1,4.3,x,-27.1,1.4%,
Cc1ccccc1C(OCC(O)CN1CCCCC1CCO)c1ccccc1 (centres undefined),6.6,3.8,-4.0,-2.1,-1.7%,
COc1ccc(C(=O)O/N=C(\N)Cc2ccc(Cl)c(Cl)c2)cc1OC,74.4,8.5,-20.5,-29.5,4.4%,
Cc1cc(C)cc(CSCC(=O)NN=C2CCCCCC2)c1,2.0,-1.9,6.4,-1.0,-0.7%,
COc1ccc(OC)c(C2C(C#N)=C(N)N(N(C)C)C3=C2C(=O)CCC3)c1 (centres undefined),-6.8,2.0,x,x,x,
c1cncc(-c2noc(-c3ccc4ccccc4c3)n2)c1,-0.7,1.7,x,x,x,
Cn1cnnc1SCC(=O)N(Cc1ccc2c(c1)OCO2)C1(C(=O)NC2CCCCC2)CCCC1,-8.5,1.4,-8.3,0.9,-6.8%,
CCN(CC)S(=O)(=O)c1ccc(N2CCOCC2)c(NC(=O)c2cc(C)cc(C)c2)c1,u,3.8,-1.8,3.2,0.6%,
O=[N+]([O-])c1cc(/C=N/O)ccc1Sc1ccccc1,46.1,9.6,-2.0,5.2,6.2%,
Cc1cc2oc(=O)cc(C)c2cc1NC(=O)CCl,97.5,8.8,x,x,3.3%,
CCOC(=O)CSc1nnc2n(Cc3ccccc3)c(=O)c3c4c(sc3n12)CCC4,x,x,-51.1,-5.0,-4.3%,
CC(C)C[C@@H](COc1ccccc1)N1CCN(CC(C)C)CCC1=O,-11.5,0.4,x,x,x,
CCOCCCNC(=O)C1CC(=O)N(C2CCCC2)C1 (centres undefined),5.0,-1.4,-2.3,20.2,-1.4%,
CC(=O)Nc1nnc(-c2ccccn2)o1,7.2,-0.1,-8.6,-9.1,-3.3%,
Cn1c(Cn2nnc3ccccc32)nnc1SCC(=O)NCc1ccc2c(c1)OCO2,x,-1.2,-32.2,14.2,-6.1%,
COc1ccc(-n2c(CSc3nc(C)cc(C)n3)nnc2SCC(=O)Nc2nccs2)cc1,-4.7,-2.9,-43.0,-6.8,-7.3%,
CN(c1ccccc1C(=O)Nc1cccc([N+](=O)[O-])c1)S(=O)(=O)c1ccccc1,3.4,1.6,x,x,x,
COCCNC(=S)N1CCc2cc(OC)c(OC)cc2C1COc1cc(C)cc(C)c1 (centres undefined),-1.5,9.0,-1.1,15.1,3.1%,
CCN1CCCC1CNC(=O)C(=O)Nc1ccc(OC)cc1 (centres undefined),8.8,-1.9,-26.9,-0.5,-3.7%,
CCC1Oc2ccccc2N(CC(=O)NCCN2C(C)CCCC2C)C1=O (centres undefined),-6.3,-3.7,-19.7,4.5,-1.2%,
Cc1cc(C)c(C(=O)/C=C/c2cccc3ccccc23)c(=O)[nH]1,-1.0,0.0,-13.7,-37.1,22.0%,
COc1ccc(-c2nc(CS(=O)CC(=O)NC(C)CCc3ccccc3)c(C)o2)cc1OC (centres undefined),7.0,0.5,x,x,x,
Cc1ccccc1C(=O)Nc1ccccc1C(=O)N1CCC(C)CC1,2.5,1.2,x,x,x,
Cc1cc(=O)oc2cc(OS(C)(=O)=O)ccc12,7.4,-5.2,-20.5,-5.5,-1.4%&3.4%,
CN1C(=O)c2ccccc2C(O)c2ccccc21 (centres undefined),-3.4,0.0,x,x,x,
CCCCCSc1nc2c(cnn2-c2ccc(F)cc2)c(=O)[nH]1,4.7,1.7,x,x,x,
COc1cc(/C=N/NC(=O)c2ccc(N(C)S(=O)(=O)c3ccccc3)cc2)cc(OC)c1OC,0.6,3.6,-29.9,1.2,-0.4%,
O=C(Nc1ncc2c(n1)CC(c1ccco1)CC2=O)c1ccccc1 (centres undefined),-2.0,-2.0,-20.4,3.1,x,
CCC(C)c1ccc(NC(=O)CSc2nncn2N)cc1 (centres undefined),-4.7,-2.3,10.2,4.8,6.8%,
Cc1cccc(C(=O)c2cccc(C)c2)c1,7.3,-0.8,-28.8,-6.2,1.3%,
CCOC(=O)c1c(NC(=O)C(C)Sc2nnc(C)c(=O)[nH]2)sc2c1CCCC2 (centres undefined),-5.2,-1.5,x,x,x,
Cc1ccc(-n2nnc3c(=O)n(CC(=O)c4ccccc4)cnc32)cc1,-4.3,-0.2,-22.9,6.9,-3.6%,
O=C(Nc1ccccn1)c1ccc(Br)c(S(=O)(=O)N2CCCC2)c1,-7.2,0.6,x,x,x,
Cc1ccccc1OCc1nnc(SC(C)C(=O)O)n1Cc1ccccc1 (centres undefined),-9.4,0.5,x,-0.6,-5.9%,
O=C1CC(NCc2ccncc2)C(=O)N1c1ccc(Cl)cc1 (centres undefined),-23.0,0.7,-26.7,5.0,-5.8%,
CCCOc1ccccc1C(=O)N1CCNC(=O)C1CC(=O)OC(C)C (centres undefined),8.4,-1.8,x,x,x,
CCC(=O)N1CCN(CCN=CC2=C(O)CC(c3cccs3)CC2=O)CC1 (centres undefined),8.5,-0.2,-55.1,8.7,7.5%,
CC(C)Sc1cc(N2CCOCC2)nc(-c2ccccc2)n1,15.5,4.6,4.7,4.3,9.8%,
Cc1ccc(-c2cc(C(=O)O)n[nH]2)o1,-14.7,-1.8,-18.2,11.1,-1.3%,
Oc1cccc(/C=N/Nc2ncnc3c2ncn3Cc2ccccc2)c1,4.7,2.1,-7.8,-9.3,8.1%,
COc1ccc(CCc2nc(C)ccc2O)cc1,-2.4&-4.0,2.9&0.9,-22.3&-19.9,7.1&10.5,9.6%&-1.3%,
CCN(CC)CCSc1nnc2c3cc(C)ccc3n(Cc3ccccc3)c2n1,88.7,2.9,x,x,13.4%,
COc1cc(/C=N/NS(=O)(=O)c2ccc(Br)cc2)ccc1O,-6.8,-1.5,x,x,x,
Cc1cc(Cl)ccc1OCC(=O)NCC(=O)N/N=C/c1ccco1,1.2,0.9,x,1.4,-6.0%,
Cn1c(SCC(=O)NCCNC(=O)CSc2nnc(C(F)(F)F)n2C)nnc1C(F)(F)F,-4.6,-0.6,-4.2,-5.4,-4.7%,
CCn1c(O)c(C=Nc2cc(Cl)ccc2Cl)c(=O)n(CC)c1=O,1.9,0.5,-25.1,-0.7,-1.4%,
N#CCC(=O)c1ccccc1Oc1ccc(Cl)cc1,6.3,13.5,x,1.0,-9.6%,

# A portion of the library; the hit share may differ from the screen's.
